Vaccinia mCherry = qHTS for Stage-Specific Inhibitors of Vaccinia Orthopoxvirus: mCherry Reporter Primary qHTS. hit rate 0.63% among 310,000. AID 720579, 2013. Potency, µM (top dose mostly 36.5 µM), without a hit: top-dose activity change, negative = inhibition, usual class: inhibitors. Vaccinia virus mCherry reporter infection, fluorescence; about a quarter of the inactives have no number; active = well fitted inhibition curve with a large enough effect; inconclusive = small, poorly fitted or top-dose-only effect; inactive = no such curve, though single readings can be large or run the other way; tested in A549 cells; also: nearly all actives have a fitted effect of over 35% in size; inactives centre near -10
VACV Venus inh = qHTS for Stage-Specific Inhibitors of Vaccinia Orthopoxvirus: Venus Reporter Primary qHTS. Potency, µM (top dose mostly 36.5 µM), without a hit: at the highest dose activity change, negative = inhibition, actives largely listed as inhibitors. Vaccinia virus Venus reporter expression, fluorescence. hit rate 0.46% among 330,000; active means well fitted inhibition curve with a large enough effect; inconclusive means small, poorly fitted or top-dose-only effect; inactive means no such curve, though single readings can be large or run the other way; tested in A549 cells; also: nearly all actives have a fitted effect of over 30% in size; inactives centre near -10
The depositor's hits bear a star; i = inactive; ? = inconclusive; . = not tested or not shown. % is scaled to controls: 0 for no effect and ±100 for the full control effect; potency is read from the fitted curve at half-maximal effect.

cpd	SMILES	Vaccinia mCherry	VACV Venus inh
1	CCOc1ccc(NC(=O)CN2CCN(c3ccc(F)cc3)CC2)cc1	-2.3%	-8.6%
2	CCOC(=O)c1sc(NC(=O)C2CC(=O)N(c3ccc(C)cc3)C2)nc1C (stereo not drawn)	6.0%	27.3%
3	Nc1cc(=O)[nH]c(SCc2cccc(Cl)c2)n1	.	-12.2%
4	CSc1nc(Cl)cc(Nc2ccc(O)cc2)n1	-25.8%	-17.0%
5	COc1ccc(NC(C)=O)cc1CNC(=O)COc1ccccc1C(=O)Nc1cccc(C)c1C	i	-9.1%
6	COC(=O)[C@]12CCCCC=C1N(CCC1=CCCCC1)C(=O)[C@H](CC(=O)NCCCN1CCCC1=O)C2	-6.4%	1.7%
7	CC(C)OC(=O)CSc1nc(C(C)C)nc2ccccc12	i	0.9%
8	COc1ccc(N/C=C(\[N+](=O)[O-])S(=O)(=O)c2ccccc2)cc1	-18.5%	-21.4%
9	CCc1nn(C(CC)C(=O)NCc2ccc(F)cc2)c(=O)c2cc3occc3n12 (stereo not drawn)	-7.9%	-2.0%
10	CCCNC(=O)c1ccccc1NC(=O)C1COc2ccccc2O1 (stereo not drawn)	-23.2%	-14.6%

cpd	SMILES	Vaccinia mCherry	VACV Venus inh
11	COc1ccc(CCNC(=O)CCc2cn(Cc3ccccc3Cl)c3ccccc23)c(OC)c1	-11.0%	-12.3%
12	O=C(Cc1ccccc1)c1c[nH]c(C(=O)O)c1	-1.6%	-11.5%
13	O=C(Cc1c(C(=O)O)[nH]c2ccc(Cl)cc12)Nc1ccc2c(c1)OCCO2	-20.2%	-5.4%
14	O=C(CSc1n[nH]c(-c2ccccc2)n1)N1CCOCC1	-1.4%	5.2%
15	O=S(=O)(c1ccc(F)cc1)N1CCN(S(=O)(=O)c2cc(F)ccc2F)CC1	-14.0%	-6.6%
16	CC(=O)Oc1ccc(/C=C2\C=C(c3ccc(C)cc3)OC2=O)cc1	-2.9%	-17.8%
17	Cc1ccc(-c2noc(CNS(=O)(=O)c3ccc(F)cc3)n2)cc1	-23.0%	-18.3%
18	CCOC(=O)c1c(NC(=O)C2(C)Cc3ccccc3C(=O)O2)sc2c1CCCC2 (stereo not drawn)	-16.7%	-11.2%
19	Cc1ccc(-c2noc(CSc3nnc(Cc4cccs4)n3-c3ccccc3)n2)cc1	-4.4%	-20.1%
20	FC(F)Oc1ccc(/C=N/n2c(Cc3ccc(Br)cc3)n[nH]c2=S)cc1	-0.7%	-5.7%

cpd	SMILES	Vaccinia mCherry	VACV Venus inh
21	Cc1ccc(C(=O)Oc2ccccc2N2CCOCC2)cc1	-17.9%	-5.2%
22	Cc1ccccc1N(C(=O)c1snc(C(N)=O)c1N)C(C)C(=O)NC1CCCCC1 (stereo not drawn)	i	-14.5%
23	COc1ccccc1C1CCN(Cc2ccccc2)CC1	-14.5%	-0.4%
24	CC(Sc1n[nH]c(N)n1)C(=O)C12CC3CC(CC(C3)C1)C2 (stereo not drawn)	i	-2.9%
25	O=C(NC1CCCC1)C1c2ccccc2OCC(=O)N1Cc1ccco1 (stereo not drawn)	11.4%	4.3%
26	CCOC(=O)C1(Cc2cccc(OC)c2)CCCN(C(=O)c2cc(C)[nH]n2)C1 (stereo not drawn)	-0.5%	3.0%
27	COc1ccccc1C(=O)NCCC(=O)N(C)CC(=O)Nc1ccc(N2CCOCC2)cc1	-9.7%	-7.8%
28	Cc1cc(OCC(=O)NNC(=O)c2ccncc2)ccc1C(C)C	i	-7.1%
29	Cc1cccc(OCC(=O)NCCCNC(=O)c2ccccn2)c1	-14.4%	-4.2%
30	Cc1ccc(C2C(C#N)=C(N)N(c3ncn[nH]3)C3=C2C(=O)CC(C)(C)C3)cc1 (stereo not drawn)	.	-8.1%

cpd	SMILES	Vaccinia mCherry	VACV Venus inh
31	CCC(CC)C(=O)c1c[nH]c(C(=O)N2CCN(c3ccccc3)CC2)c1	i	-1.2%
32	Cc1ccc2[nH]c(O)c(N=NC(=O)C3CC3c3ccccc3)c2c1Br (stereo not drawn)	-1.9%	1.5%
33	COc1ccc(C(=O)Nc2ccnn2C2CCN(C(=O)c3cnsn3)CC2)cc1	i	-8.5%
34	CCc1ccccc1N(CC)C(=O)C(=O)Nc1ccc2nc3n(c(=O)c2c1)CCCCC3	-16.9%	-17.3%
35	O=C(c1ccc(CSc2nc3ccncc3n2Cc2ccccc2)cc1)N1CCCCCC1	-16.0%	-10.1%
36	COc1ccc(NC(=O)CN(C)C(=O)CCNC(=O)c2ccccc2OC)cc1	-12.3%	-7.0%
37	C=C1CCN([C@@H](CC(C)C)C(=O)N2CCCC2)S(=O)(=O)c2ccccc21	i	-10.0%
38	CC(=O)NC1CC(=O)N(c2ccc3c(c2)OCCO3)C1 (stereo not drawn)	-15.6%	-9.0%
39	CCC(C)Sc1nc2c(c(=O)[nH]c(=O)n2C)n1CC(O)COc1cccc2ccccc12 (stereo not drawn)	.	-28.4%
40	Cc1csc(N2CCc3ccccc32)n1	i	-23.8%

cpd	SMILES	Vaccinia mCherry	VACV Venus inh
41	O=C(Nc1nccs1)c1ccc(-c2ccc(Cl)cc2Cl)o1	-20.3%	-12.7%
42	CCCCCCCSc1nnc(N)s1	?	-16.2%
43	C[C@@H]1CN([C@@H](C)CO)C(=O)CCCn2nncc2CO[C@H]1CN(C)C(=O)c1ccncc1	-19.6%	-1.9%
44	COc1cc(OCC(N)=O)cc(OC)c1OC	-7.6%	-3.8%
45	Cc1cccc(-c2nnc3n(CCc4ccccc4)c(=O)c4ccccc4n23)c1	-12.8%	-0.4%
46	COC(=O)c1ccc2c(=O)n(CCN3CCOCC3)c(SCC(=O)Nc3ccccc3OC)nc2c1	-10.8%	-16.5%
47	CCCCNC(=O)C1(C)CCCCN1C(=O)c1c(C)noc1C (stereo not drawn)	4.6%	-4.3%
48	CCN(CC(=O)Nc1c(F)cccc1F)C(=O)c1cccc(S(=O)(=O)NCc2ccccc2)c1	-23.4%	-18.5%
49	CN(C)CC1(C)Cc2ccsc2C1O (stereo not drawn)	-13.8%	2.3%
50	CCOC(=O)C1(CCOc2ccccc2)CCN(Cc2ccc(C)s2)CC1	-7.3%	-7.1%

Reformatted with two lines to a compound: part of the list above.
Results follow in this order: Vaccinia mCherry	VACV Venus inh
[3] Nc1cc(=O)[nH]c(SCc2cccc(Cl)c2)n1
 : .	-12.2%
[4] CSc1nc(Cl)cc(Nc2ccc(O)cc2)n1
 : -25.8%	-17.0%
[5] COc1ccc(NC(C)=O)cc1CNC(=O)COc1ccccc1C(=O)Nc1cccc(C)c1C
 : i	-9.1%
[6] COC(=O)[C@]12CCCCC=C1N(CCC1=CCCCC1)C(=O)[C@H](CC(=O)NCCCN1CCCC1=O)C2
 : -6.4%	1.7%

Next section:
cpd	SMILES	Vaccinia mCherry	VACV Venus inh
51	COc1ccc(C(=O)NCc2nnc(SCC(=O)Nc3nnc(C)s3)o2)cc1	i	-12.8%
52	CC1OC(=O)c2cc3ccccc3nc21 (stereo not drawn)	-13.2%	-3.5%
53	Cc1ccc(CNC(=O)c2ccc(N3CCCC3)c(NC(=O)Nc3ccc(F)c(Cl)c3)c2)cc1	-3.6%	-7.8%
54	O=c1ccc(/C=C/c2ccccc2)nn1Cc1ccccc1Cl	-6.0%	-24.2%
55	C[C@@H]1CCCCCCCCCCC1=O	-13.3%	-14.9%
56	COc1ccc2oc(=O)c(C(=O)Oc3ccc(NC(C)=O)cc3)cc2c1	-11.7%	-14.5%
57	Cc1cccc(NC(=O)CSc2nnc(C3CC3)n2CC2CCCO2)c1 (stereo not drawn)	-1.4%	-12.4%
58	Cc1nc(-c2ccc(Cl)cc2)sc1CCNC(=O)C(=O)Nc1ccc(F)cc1F	-1.0%	-2.9%
59	Cc1ccc(-c2nc(N)n(S(C)(=O)=O)n2)cc1	.	-28.7%
60	CCCCc1nn2c(=O)cc(COC(=O)c3ccccc3NC(=O)c3cccc(C)c3)nc2s1	-9.0%	-6.5%

cpd	SMILES	Vaccinia mCherry	VACV Venus inh
61	N=c1oc2cc(O)ccc2cc1C(=O)Nc1ccc(Cl)cc1	-21.6%	-16.4%
62	CCOC(=O)[C@H]1[C@H]2COc3ccc(Cl)cc3[C@@H]2N2C(=O)CN(Cc3ccc(C)cc3)C(=O)[C@@]12C	-3.0%	?
63	O=C(CN1CCCCC1)Nc1nc(-c2ccc(Cl)cc2)cs1	i	-12.7%
64	O=C(COc1cccc(C(F)(F)F)c1)N1CCN(c2ccccc2O)CC1	?	-24.0%
65	CCOC(=O)[C@]12Cc3cc(C)ccc3[C@H]1N(C1CCCCC1)C(=O)c1cc(OC)ccc12	?	?
66	CC(C)c1ccc(-n2ccnc2SCC(=O)O)cc1	i	-6.9%
67	OC(COC(c1ccccc1)c1ccccc1)CN1CCN(c2ccccn2)CC1 (stereo not drawn)	-10.6%	-12.7%
68	CCN(C(=O)c1ccc(Br)o1)C1CCS(=O)(=O)C1 (stereo not drawn)	-12.9%	-6.3%
69	Cc1ccc(-c2nc3ccccc3s2)cc1NC(=O)c1ccc2c(c1)OCO2	-12.4%	0.0%
70	COc1ccc(S(=O)(=O)NCC2CCC(C(=O)NCc3cccnc3)CC2)cc1 (stereo not drawn)	-1.9%	6.3%

Numbers 61 to 63, reprinted for reference:
cpd	SMILES	Vaccinia mCherry	VACV Venus inh
61	N=c1oc2cc(O)ccc2cc1C(=O)Nc1ccc(Cl)cc1	-21.6%	-16.4%
62	CCOC(=O)[C@H]1[C@H]2COc3ccc(Cl)cc3[C@@H]2N2C(=O)CN(Cc3ccc(C)cc3)C(=O)[C@@]12C	-3.0%	?
63	O=C(CN1CCCCC1)Nc1nc(-c2ccc(Cl)cc2)cs1	i	-12.7%

Other records:
cpd	SMILES	Vaccinia mCherry	VACV Venus inh
71	O=C(COc1ccccc1C(=O)O)NC1CCCc2ccccc21 (stereo not drawn)	-14.8%	-27.4%
72	Nc1nc(SCC(=O)NCCCN2CCOCC2)nc2sc3c(c12)CCC3	-7.1%	2.3%
73	CC(C)CCNC(=O)c1cn(C)c2ccc(S(=O)(=O)N3CCCC3)cc2c1=O	-2.2%	-14.7%
74	CCS(=O)(=O)c1ncc(N(Cc2ccc(F)cc2)Cc2ccco2)c(C(=O)Nc2cc(C)ccc2C)n1	-18.3%	-14.6%
75	Cc1ccc(-c2cc3c(n2-c2ccc(C(=O)O)cc2)CCCC3=O)cc1	2.3%	1.3%
76	CC(C)Oc1cccc(C(=O)C2CCCN(C(=O)c3csnn3)C2)c1 (stereo not drawn)	-2.2%	-13.7%
77	COc1ccc(CCN(C)CCC(=O)Nc2cc(C)ccc2C)cc1OC	.	-12.9%
78	C=CCN1C(c2ccc(Br)cc2)=CS/C1=C(\C#N)c1nnc(N2CCOCC2)n1-c1ccccc1	-2.5%	-0.2%
79	COc1ccc(-c2csc(/N=C/N(C)C)n2)cc1OC	-8.8%	-7.3%
80	O=C(Nc1ccc(Cl)c([N+](=O)[O-])c1)c1ccc2c(c1)OCCO2	-12.0%	-17.1%

cpd	SMILES	Vaccinia mCherry	VACV Venus inh
81	Cc1cccn2c(=O)c(C=C(C#N)C#N)c(N3CCN(C)CC3)nc12	-0.5%	-16.0%
82	CNC(=O)CSc1nnc(SCCC(=O)O)s1	-13.1%	4.0%
83	CCCc1c(O)nc(SC2CC(=O)N(c3ccc(OC)cc3)C2=O)[nH]c1=O (stereo not drawn)	i	-5.2%
84	Cn1c(=O)c2c(SCC(=O)NCc3ccco3)nc(-c3ccccc3)nc2n(C)c1=O	-8.2%	-7.4%
85	Cc1cc(C)c(C(=O)Nc2ccc(C)c(C)c2)c(CC(C)(C)C(=O)O)c1	-11.9%	-17.2%
86	Cc1cccc(C)c1NC(=S)N1CCC(c2ccccc2)C1 (stereo not drawn)	-13.7%	-14.9%
87	CC(=O)c1cccc(NC(=S)NC(=O)c2ccccc2Cl)c1	-10.7%	0.1%
88	C[C@H]1CN([C@@H](C)CO)S(=O)(=O)c2ccc(Br)cc2O[C@@H]1CN(C)C(=O)Cc1cccnc1	-1.3%	-6.8%
89	CC(=O)c1ccc(N2CCN(C(=O)CCS(=O)(=O)c3ccc(C)cc3)CC2)cc1	.	-17.5%
90	Cc1nn(Cc2ccc(Cl)cc2Cl)c(C)c1NC(=O)c1nc2n(n1)C(C(F)F)CC(C)N2 (stereo not drawn)	.	-14.7%

cpd	SMILES	Vaccinia mCherry	VACV Venus inh
91	CCc1nc2c(OCc3cccc(OC)c3)cccn2c1N(C)C(=O)c1ccccc1F	12.8%	-6.2%
92	COc1ccc(/C=N/NC(=O)C2c3ccccc3Oc3ccccc32)c(OC)c1	-8.0%	-2.8%
93	O=C(N1CCOCC1)N1CCN(c2nc(-c3ccccc3)cs2)CC1	-21.6%	-13.9%
94	COc1ccc(CC(=O)Nc2oc(-c3ccccc3)c(-c3ccccc3)c2C#N)cc1OC	i	-17.0%
95	CC(C)c1cc(C(=O)Nc2ccc3c(c2)OCO3)no1	i	-5.4%
96	O=C(CN1C(=O)c2ccccc2C1=O)OCC(=O)N1CCc2ccccc2C1	.	-14.5%
97	COC(=O)c1c(NC(=O)COc2cc(C)ccc2C(C)C)sc2c1CCC(C)C2 (stereo not drawn)	-0.3%	4.9%
98	O=S(=O)(Nc1ccccc1Cl)c1ccc(NS(=O)(=O)c2cccs2)cc1	-8.7%	6.3%
99	Fc1ccc(/C=C/c2nnc(-c3cccs3)o2)cc1	-12.4%	-12.9%
100	Cc1cc(C)n2nc(SCC(=O)N/N=C/c3cccc(Br)c3)nc2n1	i	0.3%
101	CC(COc1ccccc1)OC(=O)Nc1ccccc1 (stereo not drawn)	-11.7%	-6.8%
102	Cc1ccc(C)c(OCCC(=O)OCc2csc(CC(=O)Nc3ccccc3C)n2)c1	-15.4%	-8.3%
103	Cc1cccc(S(=O)(=O)Nc2ccncc2)c1	9.5%	-5.1%

Assay outcomes (PubChem)
